TRPML1 ag: activates the human TRPML1 channel | Q9GZU1 | TRPML1-expressing cells, Ca2+ dye fluorescence, FDSS; host cell line not named in the record; reference of the full effect not given here | activation, % (no concentration beside the values) | 0.12% of 410,000 active; in the data active = activation above about 50%; inconclusive = about 30% to 50%; inactive = below about 30%; note: 0% is about no effect; the text of the record puts the active cut at 80%
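Agonist activity was taken from a 110 s kinetic Ca2+ dye read on the FDSS after pinning compounds onto TRPML1-DL cells. The cells were seeded at 1,500/well with Tet inducer, incubated about 16 h, then dye-loaded at room temperature.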
PINK1 modulator: PINK1 expression modulation. PINK1 immunofluorescence, high-content cytometry, 24 h. Potency, µM (titrated, usually from 76.6 µM), without a hit: at the highest dose activation (PINK1 increase), actives largely listed as activators. 0.2% of 410,000 active. AID 624263; active = well fitted activation curve with a large enough effect; inconclusive = small, poorly fitted or top-dose-only effect; inactive = flat fitted curve, though single readings scatter; cell line not stated here;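 note: potency is the fitted concentration of half-maximal effect; % of control where 0% means no effect; nearly all actives have a fitted effect of over 65% in size; a mitochondrial uncoupler was the plate control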
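PINK1 protein, normally rapidly degraded, was detected by immunofluorescence after 24 hour compound treatment of a stable cell line. Titration data (5 concentrations) came from laser-scanning cytometry, with CCCP-treated wells as controls.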
D2 potentiator: human D2 receptor positive allosteric modulation. P14416. DiscoveRx D2 beta-arrestin cells, luminescence, 90 min; 100% = 57 uM dopamine signal. potentiation, % (concentration not given with the values). 0.23% of 360,000 active; active = potentiation of 50% or more; inconclusive = 30% to 50%; inactive = 30% or less;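 note: compound concentration not given in the record; tested on top of an EC20 dose of dopamine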
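PathHunter beta-arrestin assay in DiscoveRx D2 cells. Compounds were added with an EC20 of dopamine (50 nM final) for 90 min at 37 deg C. Luminescence was read 1 h after detection reagent, with 57 uM dopamine as the EC100 control.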
D2 ag: human D2 receptor agonism in beta-arrestin assay. P14416. 0.084% of 360,000 active. activation, % (concentration not given with the values). DiscoveRx PathHunter D2 beta-arrestin, luminescence, 90 min; 100% = 57 uM dopamine signal. AID 624465; in the data active = activation above about 40%; inconclusive = about 15% to 40%; inactive = below about 15%; note: compound concentration not given in the record; the text of the record calls up to 30% inactive
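DiscoveRx PathHunter D2 beta-arrestin cells (2,100/well) attached overnight, then compound-stimulated 90 min at 37 C in HBSS/10 mM HEPES/0.1% Tween-20 buffer; beta-galactosidase complementation read by luminescence after 1 h at ambient temperature. Dopamine 57 uM final (EC100) as control.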
TRPML1 blocker: human mucolipin-1 channel inhibition; AID 624415; activity change, negative = inhibition, % (concentration not given with the values); Q9GZU1; 0.02% of 390,000 active; TRPML1-inducible cells, Ca2+ dye fluorescence, FDSS; active compounds read low; inhibition of EC80 agonist-evoked calcium signal; in the data active means activity change below about -50%; inconclusive means about -30% to -50%; inactive means above about -30%;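 note: stimulus is agonist 54-4 at its EC80 concentration; % is set by controls: 0 for no effect and ±100 for the full control effect; the text of the record puts the active cut at -80%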
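Tet-induced TRPML1-DL cells loaded with Ca8 no-wash calcium dye were read kinetically on FDSS. Compound addition was followed by EC80 agonist 54-4 (4 uM final); inhibition was read over 110 s.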
Six1-Eya2 blk: blocks human Six1 binding to Eya2 | activity change, % (concentration not given with the values) | Q15475+O00167 | 0.56% of 360,000 active | AlphaScreen GST-Six1/His-Eya2 binding, biochemical; active compounds read low; control for the full effect not named in the record | AID 651725; in the data active = activity change below about -65%; inconclusive = about -30% to -65%; inactive = above about -30%; note: % is set by controls: 0 for no effect and ±100 for the full control effect
Target sequence (O00167 whole entry, looked up): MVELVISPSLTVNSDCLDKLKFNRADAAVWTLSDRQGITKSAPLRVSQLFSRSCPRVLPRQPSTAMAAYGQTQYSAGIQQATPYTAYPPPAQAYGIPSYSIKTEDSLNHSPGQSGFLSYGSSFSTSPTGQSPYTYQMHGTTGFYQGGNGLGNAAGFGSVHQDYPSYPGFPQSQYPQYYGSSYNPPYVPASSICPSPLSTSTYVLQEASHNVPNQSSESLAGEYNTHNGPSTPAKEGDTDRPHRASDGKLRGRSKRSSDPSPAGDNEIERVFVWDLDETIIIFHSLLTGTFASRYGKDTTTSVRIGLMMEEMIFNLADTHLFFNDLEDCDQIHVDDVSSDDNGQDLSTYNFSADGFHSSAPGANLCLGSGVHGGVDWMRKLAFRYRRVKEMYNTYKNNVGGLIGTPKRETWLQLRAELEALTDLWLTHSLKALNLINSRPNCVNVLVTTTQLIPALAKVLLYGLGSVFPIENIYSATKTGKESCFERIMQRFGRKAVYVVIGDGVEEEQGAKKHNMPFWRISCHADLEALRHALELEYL
Target sequence (Q15475 whole entry, looked up): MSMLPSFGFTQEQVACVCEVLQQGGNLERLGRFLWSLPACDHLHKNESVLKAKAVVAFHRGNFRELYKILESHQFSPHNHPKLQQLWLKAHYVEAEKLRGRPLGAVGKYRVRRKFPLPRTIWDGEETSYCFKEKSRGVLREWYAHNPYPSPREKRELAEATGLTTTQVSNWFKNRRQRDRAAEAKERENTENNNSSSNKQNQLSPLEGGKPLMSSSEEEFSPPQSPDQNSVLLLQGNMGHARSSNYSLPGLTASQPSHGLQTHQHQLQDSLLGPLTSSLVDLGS
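GST-Six1 + His-Eya2 (5X stock: 250/500 nM); Tris pH 8.0, 300 mM NaCl, 0.05% BSA, 0.02% Tween 20; GSH donor/Ni acceptor beads; 1 h 37 °C dark; AlphaScreen readout.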
* hit, by the source's call; & = joins results of further samples; [ ] = another dose, or the depositor's remark.

What do the screens show for `Cc1ccc(-c2ccc(=O)n(CC(=O)NCCC(C)C)n2)cc1`?
TRPML1 ag: 2.3; PINK1 modulator: -3.5%; D2 potentiator: -9; D2 ag: 2.8; TRPML1 blocker: 5; Six1-Eya2 blk: 1

Results for COc1cccc(CNc2ccc3[nH]c(=O)[nH]c3c2)c1OCc1ccc(F)cc1 ?
TRPML1 ag: 0.5; PINK1 modulator: -0.2%; D2 potentiator: 5; D2 ag: 2.3; TRPML1 blocker: 3; Six1-Eya2 blk: inconclusive

Results for Cc1ccc(CC(CC(=O)O)C(=O)NCc2ccccc2)cc1 (configuration not stated) ?
TRPML1 ag: -0.1; PINK1 modulator: -1.1%; D2 potentiator: -5; D2 ag: -4.1; TRPML1 blocker: -3; Six1-Eya2 blk: 1

How did CC(C)N(Cc1nnc(-c2ccc(Cl)cc2)o1)C(=O)c1cc2ccccc2o1 do in these assays?
TRPML1 ag: -1.3; PINK1 modulator: 3.8%; D2 potentiator: 1; D2 ag: 1.8; TRPML1 blocker: 0; Six1-Eya2 blk: -8

How did CCC(=O)c1cn(CCOc2ccccc2OC)c2ccccc12 do in these assays?
TRPML1 ag: 2.0; PINK1 modulator: 1.2%; D2 potentiator: -15; D2 ag: 5.1; TRPML1 blocker: 34; Six1-Eya2 blk: 7

What do the screens show for `CCOC(=O)c1c(NC(=O)CNC2CCCc3ccccc32)sc(C(N)=O)c1C` (configuration not stated)?
TRPML1 ag: 0.9; PINK1 modulator: 6.2%; D2 potentiator: -8; D2 ag: -0.2; TRPML1 blocker: 12; Six1-Eya2 blk: 0

What do the screens show for `COc1ccc(CNS(=O)(=O)c2ccc(-c3cnc(C4CC4)o3)cc2)cc1`?
TRPML1 ag: 2.3&1.1; PINK1 modulator: 9.4%&3.5%; D2 potentiator: -3; D2 ag: 2.3; TRPML1 blocker: 7&8; Six1-Eya2 blk: -10

What do the screens show for `CCCc1nnc(SCc2ccc(C(=O)OC)o2)n1N`?
TRPML1 ag: -0.9; PINK1 modulator: -0.7%; D2 potentiator: -12; D2 ag: -1.3; TRPML1 blocker: -4; Six1-Eya2 blk: -3

What do the screens show for `O=C(O)C1CCN(S(=O)(=O)/C=C/c2ccccc2)CC1`?
TRPML1 ag: -0.4; PINK1 modulator: 1.4%[38.3 µM]; D2 potentiator: -6; D2 ag: 2.1; TRPML1 blocker: -8; Six1-Eya2 blk: 4

How did CCC1CN(C(=O)N2CCC(C(=O)NCCN(C)C)CC2)c2ccccc2O1 (configuration not stated) do in these assays?
TRPML1 ag: 4.1; PINK1 modulator: 1.4%; TRPML1 blocker: 10

Looked up one by one from the list above (3):
What do the screens show for `O=C(O)C1CCN(S(=O)(=O)/C=C/c2ccccc2)CC1`?
TRPML1 ag: -0.4; PINK1 modulator: 1.4%[38.3 µM]; D2 potentiator: -6; D2 ag: 2.1; TRPML1 blocker: -8; Six1-Eya2 blk: 4

How did CCC(=O)c1cn(CCOc2ccccc2OC)c2ccccc12 do in these assays?
TRPML1 ag: 2.0; PINK1 modulator: 1.2%; D2 potentiator: -15; D2 ag: 5.1; TRPML1 blocker: 34; Six1-Eya2 blk: 7

Results for Cc1ccc(CC(CC(=O)O)C(=O)NCc2ccccc2)cc1 (configuration not stated) ?
TRPML1 ag: -0.1; PINK1 modulator: -1.1%; D2 potentiator: -5; D2 ag: -4.1; TRPML1 blocker: -3; Six1-Eya2 blk: 1

(continued)
How did CC1CCC(NC(=O)CN2C(=O)NC3(CCCCCC3)C2=O)CC1 (configuration not stated) do in these assays?
TRPML1 ag: 0.7; PINK1 modulator: 2.7%; D2 potentiator: -1; D2 ag: -0.3; TRPML1 blocker: 3; Six1-Eya2 blk: 3

How did COc1ccc(C(=O)Nc2cc3c(cc2C(=O)c2ccccc2Cl)OCCO3)cc1 do in these assays?
TRPML1 ag: 3.2; PINK1 modulator: -1.3%; TRPML1 blocker: 6

How did Cc1cc(C(=O)N/N=C/c2cc(Br)cc([N+](=O)[O-])c2O)c2ccccc2n1 do in these assays?
TRPML1 ag: 2.3; PINK1 modulator: 3.2%; D2 potentiator: -26; D2 ag: -5.2; TRPML1 blocker: -11; Six1-Eya2 blk: -87*

What do the screens show for `CCOC(=O)Cn1c(=O)oc2cc(S(=O)(=O)Nc3c(C)cc(C)cc3C)ccc21`?
TRPML1 ag: 2.0; PINK1 modulator: 2.4%; D2 potentiator: 1; D2 ag: -3.8; TRPML1 blocker: 5; Six1-Eya2 blk: 1

What do the screens show for `Cc1nc(NC(=O)COC(=O)C(C)NC(=O)c2ccccc2)c(Cl)cc1Cl` (configuration not stated)?
TRPML1 ag: 0.1; PINK1 modulator: 1.6%; D2 potentiator: -5; D2 ag: -2.7; TRPML1 blocker: 44; Six1-Eya2 blk: 1

How did COc1ccc(O)c(C(=O)CC(=O)c2ccncc2)c1 do in these assays?
TRPML1 ag: -1.0; PINK1 modulator: -2.3%; D2 potentiator: -6; D2 ag: -1.6; TRPML1 blocker: 3; Six1-Eya2 blk: -12

What do the screens show for `COC(=O)c1cnn(-c2ccccc2)c1/C=N/NC(=S)Nc1ccccc1`?
TRPML1 ag: 2.1; PINK1 modulator: 6.6%; D2 potentiator: -5; D2 ag: -3.2; TRPML1 blocker: 10; Six1-Eya2 blk: -7

Results for COC(=O)c1ccccc1NC(=O)c1cc(CN2CCCC2)on1 ?
TRPML1 ag: 0.8; PINK1 modulator: -0.7%; TRPML1 blocker: -5

How did Cc1[nH]c2ccc(C(=O)NCCCN3CCOCC3)cc2c1C do in these assays?
TRPML1 ag: -0.6; PINK1 modulator: -1.8%; D2 potentiator: -18; D2 ag: -1.7; TRPML1 blocker: -12; Six1-Eya2 blk: -3

Results for O=C(OCCc1cc2ccccc2c(=O)o1)c1ccco1 ?
TRPML1 ag: -0.5; PINK1 modulator: -0.4%; D2 potentiator: -7; D2 ag: -2.2; TRPML1 blocker: -5; Six1-Eya2 blk: 2

What do the screens show for `O=C(NCCCN1CCCC1=O)c1cccc(S(=O)(=O)N2CCN(c3ccc(F)cc3)CC2)c1`?
TRPML1 ag: -0.1; PINK1 modulator: 0.6%; D2 potentiator: 3; D2 ag: -0.6; TRPML1 blocker: 2; Six1-Eya2 blk: -5

How did CCc1ccc(CNC(=O)C2CCN(c3nn4cc(-c5ccc(OC)cc5)nc4s3)CC2)cc1 do in these assays?
TRPML1 ag: 0.5; PINK1 modulator: -1.5%; TRPML1 blocker: 4

What do the screens show for `Cc1cc(Cl)c(S(=O)(=O)NC(C(=O)O)c2ccccc2)cc1OCC(N)=O` (configuration not stated)?
TRPML1 ag: -0.9; PINK1 modulator: 1.0%; D2 potentiator: -1; D2 ag: 0.2; TRPML1 blocker: 24; Six1-Eya2 blk: 8

Results for Cc1ccc(CN2C(=O)c3ccccc3Sc3ccc(C(=O)NC4CCCC4)cc32)cc1 ?
TRPML1 ag: 1.0; PINK1 modulator: 3.1%; TRPML1 blocker: 67

How did COc1ccccc1-c1cc(C(=O)Nc2cccnc2)no1 do in these assays?
TRPML1 ag: 0.9; PINK1 modulator: inconclusive; D2 potentiator: -10; D2 ag: -0.7; TRPML1 blocker: 19; Six1-Eya2 blk: -3

What do the screens show for `COc1cccc(CC(NC(C)=O)C(=O)NC2CCN(C(=O)c3ccc(Cl)cc3)CC2)c1OC` (configuration not stated)?
TRPML1 ag: -0.2; PINK1 modulator: -0.4%; D2 potentiator: -7; D2 ag: -6.0; TRPML1 blocker: -15; Six1-Eya2 blk: 7

What do the screens show for `CCOc1cc(S(=O)(=O)N2CCC(Cc3ccccc3)CC2)c(OCC)cc1-n1cnnn1`?
TRPML1 ag: 2.1; PINK1 modulator: 2.0%[38.3 µM]; D2 potentiator: -9; D2 ag: -2.1; TRPML1 blocker: -2; Six1-Eya2 blk: -6

What do the screens show for `O=C(CCN1C(=O)c2ccccc2S1(=O)=O)NCc1ccco1`?
TRPML1 ag: 0.3; PINK1 modulator: -1.8%[38.3 µM]; D2 potentiator: -3; D2 ag: -2.4; TRPML1 blocker: 5; Six1-Eya2 blk: 3

Results for Cc1ccc(NC(=O)CCc2c(C)nc3c(-c4ccc(F)cc4)c(C)nn3c2C)cc1F ?
TRPML1 ag: -0.3; PINK1 modulator: 1.3%; TRPML1 blocker: -23

Results for Cc1nc2c(C(=O)NCc3ccccc3Cl)c[nH]n2c(=O)c1Cc1cccc(Cl)c1 ?
TRPML1 ag: -0.8; PINK1 modulator: -0.1%; TRPML1 blocker: 3

Results for FC(F)(F)c1cnc(C(c2ccccn2)c2ncn[nH]2)c(Cl)c1 (configuration not stated) ?
TRPML1 ag: -0.2; PINK1 modulator: -1.5%; D2 potentiator: -6; D2 ag: 1.1; TRPML1 blocker: 1; Six1-Eya2 blk: -89*

Results for Oc1cc(NCc2cccnc2)ccc1-c1nc2ccccc2o1 ?
TRPML1 ag: 1.0; PINK1 modulator: -1.6%; D2 potentiator: 2; D2 ag: 1.7; TRPML1 blocker: -4; Six1-Eya2 blk: -1

Results for Cc1ccc(-n2c(SCC(=O)NC3CCS(=O)(=O)C3)nc3ccccc3c2=O)c(C)c1 (configuration not stated) ?
TRPML1 ag: -1.0; PINK1 modulator: 0.0%; D2 potentiator: 16; D2 ag: 7.1; TRPML1 blocker: 10; Six1-Eya2 blk: -1

Results for CC1CCN(C(=O)CCCN2C(=O)c3cccnc3Oc3ccc(Cl)cc32)CC1 ?
TRPML1 ag: 0.7; PINK1 modulator: 1.7%; D2 potentiator: -30; D2 ag: -1.2; TRPML1 blocker: 11; Six1-Eya2 blk: -6

What do the screens show for `CCc1c(C(=O)Nc2ccc(OC)cc2)[nH]c(C)c1C(C)=O`?
TRPML1 ag: 1.3; PINK1 modulator: -0.4%; D2 potentiator: -20; D2 ag: -1.5; TRPML1 blocker: -24; Six1-Eya2 blk: -10

How did O=C(Nc1cc(C(F)(F)F)ccc1Cl)C1CCN(c2nnc(-n3cccc3)s2)CC1 do in these assays?
TRPML1 ag: -0.5; PINK1 modulator: 14%; D2 potentiator: -22; D2 ag: 0.4; TRPML1 blocker: -9; Six1-Eya2 blk: 8

What do the screens show for `O=c1c(Cl)c(NCCO)cnn1-c1cccc(Cl)c1`?
TRPML1 ag: 0.2; PINK1 modulator: -1.5%; D2 potentiator: -2; D2 ag: 0.6; TRPML1 blocker: 8; Six1-Eya2 blk: 3

What do the screens show for `CCOC(=O)/C=c1/s/c(=C\c2c(OC)ccc3ccccc23)c(=O)n1CC(=O)NCC1CCCO1` (configuration not stated)?
TRPML1 ag: 2.3; PINK1 modulator: 3.5%; D2 potentiator: -13; D2 ag: -3.9; TRPML1 blocker: -20; Six1-Eya2 blk: 10

What do the screens show for `Cc1cccc(NC(=O)CN2CCN(C(=O)C3CCN(C(=O)/C=C/c4ccccc4)CC3)CC2)c1C`?
TRPML1 ag: -0.7; PINK1 modulator: -0.7%; D2 potentiator: -2; D2 ag: 2.9; TRPML1 blocker: 3; Six1-Eya2 blk: -1

Results for OC1CCC(Nc2ncnc3sccc23)CC1 (configuration not stated) ?
TRPML1 ag: -0.5; PINK1 modulator: -1.1%; D2 potentiator: -4; D2 ag: 0.0; TRPML1 blocker: 7; Six1-Eya2 blk: -1
